hNpr1 antagonist – human Npr1 receptor antagonism | Potency, µM (series often up to 46.3 µM), for inactives: top-dose activity change, negative = inhibition, most hits filed as inhibitors | AID 1347048 | HEK293 hNpr1 GloSensor cGMP, ANP-stimulated luminescence | 76,000 tested, 1.6% active; active = well fitted inhibition curve with a large enough effect; inconclusive = small, poorly fitted or top-dose-only effect; inactive = no such curve, though single readings can be large or run the other way;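 note: nearly all actives have a fitted effect of over 60% in size; nearly all hits also lower the signal before the agonist is added; a reference antagonist and vehicle were the controls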
Target sequence (P16066 whole entry, looked up): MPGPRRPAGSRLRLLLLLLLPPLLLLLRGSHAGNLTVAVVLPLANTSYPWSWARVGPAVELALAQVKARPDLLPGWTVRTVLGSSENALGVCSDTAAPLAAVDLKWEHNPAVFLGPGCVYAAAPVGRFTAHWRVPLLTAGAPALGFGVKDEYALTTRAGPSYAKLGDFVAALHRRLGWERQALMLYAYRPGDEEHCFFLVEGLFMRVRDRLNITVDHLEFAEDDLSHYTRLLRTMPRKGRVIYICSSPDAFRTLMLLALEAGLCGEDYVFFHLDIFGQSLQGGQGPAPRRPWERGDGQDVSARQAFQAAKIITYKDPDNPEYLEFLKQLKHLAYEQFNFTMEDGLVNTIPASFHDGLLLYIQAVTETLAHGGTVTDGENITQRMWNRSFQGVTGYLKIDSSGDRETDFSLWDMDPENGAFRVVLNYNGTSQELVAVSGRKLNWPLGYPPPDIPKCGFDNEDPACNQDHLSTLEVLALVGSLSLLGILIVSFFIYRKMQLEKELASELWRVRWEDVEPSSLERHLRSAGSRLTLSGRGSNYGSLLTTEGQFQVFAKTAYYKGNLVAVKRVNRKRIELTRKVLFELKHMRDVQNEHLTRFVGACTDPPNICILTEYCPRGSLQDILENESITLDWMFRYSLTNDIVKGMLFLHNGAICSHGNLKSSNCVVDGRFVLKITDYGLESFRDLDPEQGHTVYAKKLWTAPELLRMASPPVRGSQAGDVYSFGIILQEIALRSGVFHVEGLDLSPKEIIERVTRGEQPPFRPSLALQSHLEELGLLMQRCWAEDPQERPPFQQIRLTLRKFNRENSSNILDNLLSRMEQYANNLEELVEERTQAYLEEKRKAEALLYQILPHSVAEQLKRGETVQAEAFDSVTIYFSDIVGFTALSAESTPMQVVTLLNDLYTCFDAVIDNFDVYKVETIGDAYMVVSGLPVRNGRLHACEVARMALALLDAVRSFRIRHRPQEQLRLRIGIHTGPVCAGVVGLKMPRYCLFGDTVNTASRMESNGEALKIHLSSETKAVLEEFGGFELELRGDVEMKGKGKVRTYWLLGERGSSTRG
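HEK293 cells stably expressing human Npr1 and cGMP GloSensor pGS-40F, loaded 2 h with 2% GloSensor reagent, given compound 30 min at room temperature. Luminescence read before and 20 min after 0.1 nM hNppA.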
Active calls of the source: *; ? = inconclusive; [ ] = dose if it differs, or a comment. % is set by controls: 0 for no effect and ±100 for the full control effect; potency is the fitted concentration of half-maximal effect. An excerpt; the hit share may differ from the screen's.

SMILES,hNpr1 antagonist
CN(Cc1ccccc1)Cc1cn([C@H]2CO[C@H]3[C@@H]2OC[C@@H]3NC(=O)c2ccco2)nn1,-1.3%[70.6 µM]
CC(C)(C)CC(=O)N1CCC2(CC1)C(=O)N(CC(=O)Nc1ccccc1)CN2c1ccccc1,0.3%
Cc1ccn(CC(=O)N2CCCCCCNC(=O)[C@@H]3CCCC[C@@H]32)n1,1.5%
COC[C@@H]1CN(C(=O)Cn2nc(C)cc2C)C[C@H]1c1ccncc1,-6.5%
COc1ccccc1C(=O)N1CCn2c(nnc2C2CCCNC2)C1 (configuration not stated),0.0%
CCN(CC)C(=O)C(C)[C@@H]1CC[C@@]2(C)CC[C@H](NC(=O)c3cnccn3)[C@@H](C)[C@@H]2[C@H]1O (some centres not stated),-2.2%[70.6 µM]
CC(C)n1cnnc1CC1CCCN(C(=O)COc2ccccc2)C1 (configuration not stated),-6.5%
CCN(CC)Cc1nc(C2(O)CCN(CC3CC3)CC2)cs1,5.3%[70.6 µM]
Cc1nc(N2CCC(NC(=O)Cc3ccc(Cl)cc3)CC2)cc(C(F)(F)F)n1,?
O=C1CC(c2ccccc2)N(C(=O)C2CC2)CCCN(C(=O)c2ccc3cc[nH]c3c2)CCN1 (configuration not stated),3.7%
COc1ccc(-c2cc(N3CCCN(C(=O)Cc4cccc(F)c4)CC3)n[nH]2)cc1,0.0%
O=C(CC1=C2CCCCC2N(Cc2ccc(F)cc2)C1=O)NCCc1c[nH]c2ccccc12 (configuration not stated),-18.3%
COc1cccc([S+](=O)([O-])N2CCC3(CC2)C(=NC2CCCCC2)NC(=O)N3c2cccnc2)c1,-11.0%
O=C(Cn1ccn2nc(-c3ccccc3)c(CO)c2c1=O)NCCC1=CCCCC1,3.6%
CC(C)N[C@H]1C[C@@H](Cc2cc(COc3ccccc3)on2)C1(C)C,-0.8%[70.6 µM]
COc1ccc(C(=O)N2CCCN(C)c3ccccc32)cc1,3.1%
O=C(N[C@H]1C[C@@H]2C(=O)N[C@H]3CCN(C(=O)c4cccs4)[C@@H]3C(=O)N2C1)C1CCCC1,2.0%[70.6 µM]
O=[S+]1([O-])NC2(CCCN(Cc3ccccc3)C2)CNc2ccccc21 (configuration not stated),8.6%
Cc1ccc(-n2c(=O)c3c(cc(C)n3C)n(CC(=O)Nc3ccc4c(c3)OCO4)c2=O)cc1,0.1%
CCCN(C)c1nccnc1OC1CCN(C(=O)c2cccc(OC)c2OC)C1 (configuration not stated),-14.6%
CN(C)C(=O)c1cccnc1OC1CCN(S(=O)(=O)c2ccc(F)c(F)c2)C1 (configuration not stated),2.3%
O=C(NCc1cccnc1N1CCOCC1)c1n[nH]c2c1CCCC2,-7.3%
O=C1N[C@@H]2CCN(C(=O)c3ccccc3)[C@@H]2C(=O)N1c1ccccc1,4.5%[70.6 µM]
O=C(NCc1ccccc1)[C@@H]1Cc2nc[nH]c2CN1Cc1ccc(Cl)cc1,-11.3%[70.6 µM]
CCCS(=O)(=O)N1CCCC(Cc2noc(-c3ccccc3)n2)C1 (configuration not stated),7.9%
CC(NC(=O)C1CCN(c2cc(C(F)(F)F)ncn2)CC1)c1ccccc1 (configuration not stated),-29.2%
Cc1ccc(-c2nnc3ccc(N4CCN(Cc5ccccc5)CC4)nn23)nc1,-2.4%[70.6 µM]
CC(C)n1nc(OC(C)(C)C(=O)NC2CCOCC2)c2cc(CN3CCOCC3)ccc21,2.7%
O=C(NCc1ccc(-c2ccc(F)cc2)o1)C1CC(=O)N(Cc2cccnc2)C1 (configuration not stated),1.4%
COc1ccc(CN2Cc3[nH]nc(-c4ccccc4)c3CC2=O)cc1,-1.0%[70.6 µM]
O=C(O)c1ccccc1C(=O)N[C@H]1CO[C@H]2[C@@H]1OC[C@@H]2n1nnnc1Oc1ccc2c(c1)OCO2,3.8%
O=C1OC[C@@H]2CCN(Cc3ccc4c(c3)OCO4)Cc3ccc(F)cc3N12,-5.4%[70.6 µM]
CC(=O)N1CCC(Cc2ccc(C(=O)Nc3ccc(C)cc3)cc2)CC1,10µM*
CCCNc1cc(N2CCC(CCC(=O)NCc3ccc(Cl)cc3)CC2)ncn1,-14.9%
C=CCNC(=O)Cc1c2c(n(Cc3ccccc3F)c1C)CCCC2=O,0.5%
CCc1nccc(CN2CCCC(CC3CC3)(C(=O)O)C2)n1 (configuration not stated),-10.4%
Cc1[nH]c2c(F)cccc2c1CC(=O)N(C)Cc1ccc2nsnc2c1,3.5%
COc1ccc(CCNc2ncnc3c2CN(c2ccccc2)C(=O)CN3C)cc1,5.3%
COCCO[C@H]1C(=O)N(C2CCN(C(=O)NC(C)C)CC2)[C@H]1c1ccncc1,-3.2%
CNC(=O)[C@@H]1CN(C(=O)c2ccc(Cl)cc2)C[C@H]1CO,-9.0%
Cc1nc(N2CCN(C(=O)c3ccoc3)CC2)cc(C(F)(F)F)n1,-2.9%
O=C(N[C@H]1C[C@@H]2C(=O)N[C@H]3CCN(C(=O)C4CCCC4)[C@@H]3C(=O)N2C1)c1ccc(F)c(Cl)c1,6.8%
COc1cc(SC)c(OC)cc1CN1CCC2(CC(=O)NC2=O)C1 (configuration not stated),-4.0%
O=C(Cn1ccn2nc(-c3ccccc3)c(CO)c2c1=O)NCCc1ccc(Cl)cc1,2.8%
Cn1cc(-c2cccc(CO)c2)c2nc(CNc3ccccc3)cn2c1=O,-0.6%[70.6 µM]
CCOc1ccc2c(n1)CCN(C(=O)Cc1ccc(F)cc1)C2,0.0%
O=[S+]1([O-])NCC2(CCN(CC3CC3)CC2)Nc2ccccc21,0.0%[70.6 µM]
COc1cccc(-c2cc3c(ccn3CC3CCN(C)CC3)c(N3CCOCC3)n2)c1,-0.4%[70.6 µM]
CC(C)n1ccc2c(NC(=O)Cn3nc4c(cc3=O)CCCCC4)cccc21,1.9%
CN1C(=O)CC(C(=O)O)C12CCN(Cc1cncs1)CC2 (configuration not stated),-1.3%
CN(C)c1cccc(C(=O)N2CCCN(c3cc(-c4ccc(F)cc4)[nH]n3)CC2)c1,-21.4%
COc1cc(NC(=O)N2C[C@@H]3C[C@H](C2)c2ccc(NC(=O)c4ccc(F)cc4)c(=O)n2C3)cc(OC)c1,6.7%
COCCNC(=O)C[C@@H]1C[C@H]2O[C@H](CNCc3cccnc3OC)[C@@H](O)[C@H]2O1,0.2%[70.6 µM]
O=C(C1CCCO1)N1CCN(c2nc(-c3ccncc3)nc3c2CNC3)CC1 (configuration not stated),2.6%
CN(c1ccccc1)c1ccc2nnc(-c3cc(C(=O)NCCc4ccccc4)ccn3)n2n1,0.4%
CCC(CC)C(=O)NC1CCN(c2cnn(Cc3ccccc3)c(=O)c2)CC1,-2.8%
CCNc1nc2c(s1)C(c1cccnc1)CC(=O)N2 (configuration not stated),-1.5%
O=C(Nc1ccccc1)C1CCN(C(=O)c2ncn3c2COC(c2ccccc2)C3)CC1 (configuration not stated),?
O=C1NC(=O)[C@@H]2CN(C(=O)c3coc(COc4ccc5c(c4)OCO5)n3)C[C@H]12,-2.4%
COc1cc(CNCc2ccccc2C)ccc1OCC(O)CN1CCOCC1 (configuration not stated),2.2%

Next part
SMILES,hNpr1 antagonist
Cc1noc([C@@H]2CN(C(=O)Cc3ccsc3)C[C@H]2C(N)=O)n1,4.9%
Cn1c(CNC(=O)C[C@H]2NC(=O)c3ccccc3NC2=O)nc2ccccc21,6.1%
COc1ccc(C(=O)NCCn2c(C)cnc2-c2ccccc2)cn1,4.4%
CS(=O)(=O)c1ccc(CN2CCC3(CCNCC3)C2)cc1,-3.3%
Cc1noc(-c2cccs2)c1C(=O)NC(C)CCc1ccccc1 (configuration not stated),1.0%
CN1C(=O)CS(=O)C12CCN(C(=O)C1(c3ccccc3)CC1)CC2 (configuration not stated),-1.9%
O=C(N[C@H]1[C@@H]2CCO[C@@H]2[C@@H]1C1CCCC1)c1ncc(F)cc1F,-7.1%
O=C(c1ccncc1)N1CC2CCC(C1)N2Cc1ccc(-c2ccsc2)cc1,2.51µM*
Cc1ccc(CNC(=O)C(C)C2CCOCC2)cc1 (configuration not stated),8.5%
Cc1ccccc1NC(=O)N1CCCC(c2noc(COc3ccccc3)n2)C1 (configuration not stated),-22.3%
O=C(NCc1ccncc1)C1CCC(=O)N(C2CCCCCC2)C1 (configuration not stated),-2.7%
Cc1cc(OC2CN(C(=O)c3ccccn3)C2)ccc1F,-6.8%[70.6 µM]
O[C@@H]1CO[C@H]2[C@@H]1OC[C@@H]2n1nnnc1Sc1ncccn1,1.7%[70.6 µM]
O=C(c1ccccn1)N1CCCCCC1c1nnc(-c2ccccc2)o1 (configuration not stated),0.0%
O=[S+]1([O-])NC2(CCCN(Cc3ccccc3C(F)(F)F)C2)CNc2ccccc21 (configuration not stated),-29.1%
COCCCNC(=O)C(NC(=O)c1ccccc1F)C1CCN(C(=O)C2CC2)CC1 (configuration not stated),2.3%
CN(Cc1cccc(C(F)(F)F)c1)C(=O)c1ccc(Cl)nc1,-7.5%[70.6 µM]
c1cnc2c(c1)nc1n2[C@@H](CNC2CCCCC2)COC1,-1.8%[70.6 µM]
CC(=O)c1ccc(NC(=O)O[C@@H]2CO[C@H]3[C@@H]2OC[C@@H]3NS(=O)(=O)Cc2ccccc2)cc1,3.4%
O=C(c1ccccc1)N1CCc2nc(-c3ccc(Cl)cc3)nc(-c3ccccc3)c2C1,5.3%

Further entries.
mol,hNpr1 antagonist
CCCn1cc(CNC(=O)c2ccc(CC3CCCNC3)cc2)cn1 (configuration not stated),-3.5%
CN(C)[C@@H]1CN(Cc2ccsc2)CC[C@@H]1CNC(=O)C1CC1,4.9%
CC(NC(=O)C1(N2CCCCC2)Cc2ccccc2C1)c1cnn(C)c1 (configuration not stated),9.1%
COc1ccccc1C(=O)N1CCCCCC1c1nnc(-c2ccccc2)o1 (configuration not stated),1.8%
CC(C)COc1cc(=O)n2c(c1C(=O)NCc1ccccc1F)CCCCC2,5.0%
CC(C)CN1CCNC(=O)C1CC(=O)NC(C)(C)Cc1ccc(F)cc1 (configuration not stated),-1.3%
COCCNC(=O)c1ccc2c(c1)N(C)C(CC(=O)NC(C)C)CO2 (configuration not stated),-1.1%
CNC(=O)c1cc(-c2ccccc2C)cc2c1OCCN2Cc1cccnc1,?
CCc1cc(C(=O)N2CCN(C)C3(CCC(=O)N(C)CC3)C2)n(C)n1 (configuration not stated),7.0%
CC(C)(C)OC(=O)NCCCC(=O)N1CCC(n2c(=O)[nH]c3ccccc32)CC1,20µM*
O=C(Nc1ccc2ncnc(N3CCCCC3)c2c1)c1ccsc1,-19.6%
N#Cc1cccc(CN2Cc3[nH]cnc3C[C@H]2c2nc(-c3ccccc3)no2)c1,-10.9%[70.6 µM]
COc1ccc(CNC(=O)c2cc3c(s2)CCN(C(=O)c2ccccc2)C3)cc1OC,2.51µM*
O=C(CC(c1ccccc1)c1ccc2c(c1)OCO2)N1CCCCCC1 (configuration not stated),-28.3%
c1ccc2[nH]c(C3CCC(Cn4cc(-c5cncnc5)nn4)CC3)nc2c1 (configuration not stated),7.4%
Cc1cc(CNC(=O)[C@@H]2CCC[C@@H](NCc3nccn3C)CN(C)C(=O)C2)no1,-2.1%[70.6 µM]
O=C(CCC[C@@H]1[C@H]2CCCN3CCC[C@@H](CN1C(=O)C1CCCC1)[C@@H]23)N1CCOCC1,-2.9%
C[C@@H]1CN(C(=O)c2ccc(-c3ccn[nH]3)cc2)CC[C@@]1(O)C1CCOCC1,-5.0%
COc1ccc(C(=O)N2CCN(c3cc(C(F)(F)F)nc(C)n3)CC2)cc1,4.2%
Cc1noc(C)c1[S+](=O)([O-])N1CCC2(C1)OC(=O)Nc1ccccc12 (configuration not stated),-2.0%
Cc1noc(-c2ccc(OC3CN(C(=O)NCC(C)C)C3)cc2)n1,?
Cc1cccc(O[C@H]2COCCN(c3nc4ccccc4s3)C2)n1,-16.4%[70.6 µM]
CCc1nn(-c2ccccc2)c(Oc2ccccc2F)c1CCC(=O)NCCOC,-20.2%
CNC(=O)[C@@H]1CN(C(=O)c2c(C)noc2C)C[C@H]1COC,3.1%
COc1ccc(Nc2cnc3ccc(-c4ccc(OC)c(OC)c4)nn23)cc1,-0.8%[70.6 µM]
NC1CCC(n2cc(C(=O)N3CCNCC(O)C3)nn2)CC1 (configuration not stated),3.9%
O=C(O)CCn1ncc2cc(OC3CCN(C(=O)OC4CCCC4)CC3)ccc21,1.1%[70.6 µM]
Cc1cc(C)c(CNC(=O)c2cc(-c3cnn(C)c3)cc3c2OCCN3C(C)C)c(=O)[nH]1,4.6%[70.6 µM]
COc1ccccc1-c1cn2c(n1)CO[C@@H](CNC(=O)COc1ccccc1)C2,-2.3%[70.6 µM]
Cc1nn2c(c1-c1ccccc1Oc1ccccc1)N(Cc1ccc(C(=O)O)cc1)CCC2,2.82µM*
CC(C)(C)c1cc(C[C@H]2CNCC[C@H]2CC(=O)N2CCCCC2)no1,-7.5%[70.6 µM]
CC(=O)N1CCN(c2nc3c(s2)CC(C(=O)Nc2cc(F)cc(F)c2)CC3)CC1 (configuration not stated),10µM*

A draw from above in order of heavy-atom count, smallest number first.
mol,hNpr1 antagonist
COCCO[C@H]1C(=O)N(C2CCN(C(=O)NC(C)C)CC2)[C@H]1c1ccncc1,-3.2%
N#Cc1cccc(CN2Cc3[nH]cnc3C[C@H]2c2nc(-c3ccccc3)no2)c1,-10.9%[70.6 µM]
O=C(CC1=C2CCCCC2N(Cc2ccc(F)cc2)C1=O)NCCc1c[nH]c2ccccc12 (configuration not stated),-18.3%
O=C1CC(c2ccccc2)N(C(=O)C2CC2)CCCN(C(=O)c2ccc3cc[nH]c3c2)CCN1 (configuration not stated),3.7%
COc1cccc([S+](=O)([O-])N2CCC3(CC2)C(=NC2CCCCC2)NC(=O)N3c2cccnc2)c1,-11.0%
